Bioassay records from PubChem BioAssay.
H5N1 antiviral: MDCK cell protection from H5N1 avian flu; cytopathic effect, luminescence, 72 h; stronger effect = higher value; no value below 0 was filed and about half of the inactive calls have no number; reference of the scale not given here; inhibition, % at 50 µM; 0.07% of 96,000 active; AID 740; in the data active = inhibition above about 25%
* = called active by the depositor. An excerpt; count on the stated rates, not on these rows.

What do the screens show for `Cc1ccc(NCc2nnc(SCC(=O)NCc3ccco3)n2CC2CCCO2)cc1Cl` (stereo unspecified)?
H5N1 antiviral: inactive

What do the screens show for `CSc1ccc(/C=N/NC(=O)c2cccc(O)c2)cc1`?
H5N1 antiviral: inactive

How did Cc1ccc2c(c1)nnn2C1CCN(CC(=O)Nc2ccccc2N2CCOCC2)CC1 do in these assays?
H5N1 antiviral: inactive

How did COc1ccc(OCc2nn3c(-c4ccco4)nnc3s2)cc1 do in these assays?
H5N1 antiviral: 0.3

Results for Cc1cccc(NC(=O)c2cc3n(n2)C(C(F)(F)F)CC(C2CC2)N3)c1C (stereo unspecified) ?
H5N1 antiviral: 1.2

What do the screens show for `O=C(CSc1nnc(CNC(=O)c2cccs2)o1)NCCc1ccccc1`?
H5N1 antiviral: 0.4

What do the screens show for `CCOc1ccc(N(CC(=O)Nc2ccc(OC)cc2)S(=O)(=O)c2c(C)noc2C)cc1`?
H5N1 antiviral: inactive

What do the screens show for `CCOc1cc(Br)c(C(=O)O)cc1OC`?
H5N1 antiviral: inactive

What do the screens show for `O=C(CSc1nc2ccccc2[nH]1)N1CCN(S(=O)(=O)c2ccc(Cl)cc2)CC1`?
H5N1 antiviral: 0.6

Results for CC(=NCc1cccnc1)c1c(O)n(-c2ccc(C)cc2)c(=O)[nH]c1=O ?
H5N1 antiviral: inactive

How did Cc1cccc(Oc2ccccc2N)c1 do in these assays?
H5N1 antiviral: inactive

What do the screens show for `CN(C)c1ccc(NC(=O)c2ccncc2)c2ccccc12`?
H5N1 antiviral: inactive

Results for COc1ccc(NC(=O)NCCCN2CCCC2=O)c(OC)c1 ?
H5N1 antiviral: 0.1

What do the screens show for `COc1cc(NC(=O)CCN2CCN(Cc3ccccc3)CC2)cc(OC)c1`?
H5N1 antiviral: inactive

How did COC(=O)c1cc(C#N)c(SCc2ccccc2)nc1C do in these assays?
H5N1 antiviral: inactive

Results for CCC(=O)c1cn(CC(=O)NCc2ccco2)c2ccccc12 ?
H5N1 antiviral: 0.3

What do the screens show for `CCCC(=O)Nc1ccc(C(=O)N2CCCC2)cc1`?
H5N1 antiviral: 0.8

How did O=C1C2C3c4ccccc4C(c4ccccc43)C2C(=O)N1Cc1cccnc1 (stereo unspecified) do in these assays?
H5N1 antiviral: inactive

How did COc1ccc(C=Nc2cccc3c(=O)[nH][nH]c(=O)c23)c2ccccc12 do in these assays?
H5N1 antiviral: inactive

How did CC(=O)NC12CC3CC(CC(CC(=O)O)(C3)C1)C2 do in these assays?
H5N1 antiviral: 1.4

What do the screens show for `Cc1nnc(SCC(=O)Nc2cccc(C(F)(F)F)c2)n1Cc1ccco1`?
H5N1 antiviral: inactive

What do the screens show for `Cc1cccnc1NC(=O)Nc1cccc(C(F)(F)F)c1`?
H5N1 antiviral: 0.6

What do the screens show for `O=C(COc1ccc(Cl)cc1)Nc1ccccc1N1CCOCC1`?
H5N1 antiviral: 1.0

How did CCS(=O)(=O)N1CCN(c2ccccn2)CC1 do in these assays?
H5N1 antiviral: inactive

How did COc1ccc(N2C(=O)C3CCCN3C2c2ccccc2F)cc1 (stereo unspecified) do in these assays?
H5N1 antiviral: inactive

What do the screens show for `c1cc2c(cc1-c1cnc3n1CCC3)OCCO2`?
H5N1 antiviral: 4.1

Results for CC(C)OC(=O)C1C(=O)CC(C)(O)C(C(=O)OC(C)C)C1c1cccnc1 (stereo unspecified) ?
H5N1 antiviral: 0.1

How did CCCN(Cc1cc2cc(OC)ccc2[nH]c1=O)C(=O)c1ccncc1 do in these assays?
H5N1 antiviral: 0.6

Results for Cc1nc2c(-c3ccc(F)cc3)c(C)nn2c(N2CCOCC2)c1C ?
H5N1 antiviral: 1.0

What do the screens show for `O=C(N/N=C/c1ccccn1)c1ccco1`?
H5N1 antiviral: 2.9

What do the screens show for `COc1cccc(N2CCN(C(=O)C3C4C=CC5(CN(Cc6ccccc6Cl)C(=O)C35)O4)CC2)c1` (stereo unspecified)?
H5N1 antiviral: 1.8

How did O=C(c1cccnc1NCc1ccccc1)N1CCOCC1 do in these assays?
H5N1 antiviral: 0.4

What do the screens show for `Cc1nc(N2CCCCC2)c2sc(=S)n(C)c2n1`?
H5N1 antiviral: 1.1

Results for O=C(C1CCCN(S(=O)(=O)c2cnc[nH]2)C1)N1CCN(c2ccc(Cl)cc2)CC1 (stereo unspecified) ?
H5N1 antiviral: inactive

What do the screens show for `CCOc1ccc(N(CC(=O)N2CCCC2)S(=O)(=O)c2c(C)noc2C)cc1`?
H5N1 antiviral: 0.3

What do the screens show for `Cc1nn(Cc2c(Cl)cccc2Cl)c(C)c1NC(=O)c1sc2ccccc2c1Cl`?
H5N1 antiviral: 0.6

What do the screens show for `COc1cccc(/C(O)=C2/C(=O)C(=O)N(CCCN3CCOCC3)C2c2ccncc2)c1` (stereo unspecified)?
H5N1 antiviral: 2.5

What do the screens show for `CN(C)CCCNc1cn[nH]c(=O)c1Cl`?
H5N1 antiviral: inactive

How did Oc1cccc2ccc(/C=C/c3cccs3)nc12 do in these assays?
H5N1 antiviral: inactive

What do the screens show for `Cc1cc(Cl)cc(Cl)c1OCC(=O)NCc1ccco1`?
H5N1 antiviral: 1.0

How did CCOC(=O)N1CCN(C(=O)c2ccc(CS(=O)(=O)c3ccc(OC)cc3)o2)CC1 do in these assays?
H5N1 antiviral: 1.4

Results for Cc1cc(N2CCN(C)CC2)nc2ccc(NC(=O)c3cccnc3Cl)cc12 ?
H5N1 antiviral: inactive

Results for Cc1c(N=C/C=C2\N(C)c3ccccc3C2(C)C)c(=O)n(-c2ccccc2)n1C ?
H5N1 antiviral: 0.3

How did O=C(C1CSC2(c3ccc(F)cc3)CCC(=O)N12)N1CCCCCC1 (stereo unspecified) do in these assays?
H5N1 antiviral: 1.1

Results for COCCNC(=O)C1CCN(S(=O)(=O)c2ccccc2)CC1 ?
H5N1 antiviral: inactive

What do the screens show for `CCOC(=O)c1cc(-c2ccccc2)sc1NC(=O)C(C)Sc1nnnn1C` (stereo unspecified)?
H5N1 antiviral: inactive

How did O=C(CN1C2CCCC1CC(NC(=O)c1ccco1)C2)Nc1ccccc1 (stereo unspecified) do in these assays?
H5N1 antiviral: inactive

What do the screens show for `N#CC1=C(SCc2ccccc2)NC(=O)C(C#N)C12CCCC2` (stereo unspecified)?
H5N1 antiviral: 0.2

Results for CCN(C(=O)CSc1ncn[nH]1)c1cccc2ccccc12 ?
H5N1 antiviral: 2.6

What do the screens show for `CN(C)c1nc(SCc2ccccc2Cl)nc2c1CCCC2`?
H5N1 antiviral: 0.6

How did Cc1ccc(O)c(C2=Nc3ccccc3N=C(c3ccco3)C2)c1 do in these assays?
H5N1 antiviral: 0.6

Results for CN1CCN(C2CC(=O)N(Cc3ccc(N4CCCC4=O)cc3)C2=O)CC1 (stereo unspecified) ?
H5N1 antiviral: inactive

What do the screens show for `Cc1nc2ccccc2n2c(-c3ccccc3)c3c(=O)n(C)c(=O)n(C)c3c12`?
H5N1 antiviral: 4.3

Results for O=C(Cc1ccc(F)cc1)N(c1ccc(F)cc1)C1C=CS(=O)(=O)C1 (stereo unspecified) ?
H5N1 antiviral: 0.2

Results for Cc1ccc(C)c(C(=O)c2c(C)nc3sccn23)c1 ?
H5N1 antiviral: inactive

How did CCOC(=O)Cn1ccc(O)c(Cc2ccc(Cl)cc2Cl)c1=O do in these assays?
H5N1 antiviral: 0.3

How did N#Cc1c(N)nc2c(c1-c1cccc(O)c1)CCCCCC2 do in these assays?
H5N1 antiviral: inactive

Results for Cc1ccc2nsnc2c1S(=O)(=O)N(Cc1cc2cccc(C)c2[nH]c1=O)CC1CCCO1 (stereo unspecified) ?
H5N1 antiviral: inactive

How did NC(=O)c1cc2ccccc2oc1=NCc1ccccc1 do in these assays?
H5N1 antiviral: 2.4

How did Cn1nnc(NC(=O)CSc2ncn[nH]2)n1 do in these assays?
H5N1 antiviral: 0.1

How did Cc1ccc2nc(SCC(=O)NCC3CCCO3)c(C#N)cc2c1 (stereo unspecified) do in these assays?
H5N1 antiviral: 0.3

Results for COC(=O)c1cc(OC)c(OC)cc1NC(=O)CN1CCCCC1 ?
H5N1 antiviral: 2.0

What do the screens show for `COc1ccc(Cl)cc1NC(=O)CSc1nncn1-c1cccnc1`?
H5N1 antiviral: 0.0

Results for Cc1ccc2oc3c(c(=O)c2c1)C(c1ccc(F)cc1)N(CCCN1CCOCC1)C3=O (stereo unspecified) ?
H5N1 antiviral: inactive

Results for O=C(O)c1cccc(NC(=O)C2C3C=CC(C3)C2C(=O)OCC(F)(F)C(F)F)c1 (stereo unspecified) ?
H5N1 antiviral: 0.8

How did O=C(c1ccco1)N1CCN(S(=O)(=O)c2cccc(C(F)(F)F)c2)CC1 do in these assays?
H5N1 antiviral: inactive

Results for CCOC(=O)C(=O)Nc1ccccc1C(=O)Nc1ccc(OC)cc1 ?
H5N1 antiviral: inactive

Results for Cc1cccc(-n2c(C)nc3sccc3c2=O)c1 ?
H5N1 antiviral: 0.1

Results for N#CCSc1nc2sc3c(c2c(=O)n1C1CCCCC1)CCCC3 ?
H5N1 antiviral: 0.3

How did O=S(=O)(c1ccccc1)N(CC(O)Cn1c2ccccc2c2ccccc21)c1ccccc1 (stereo unspecified) do in these assays?
H5N1 antiviral: inactive

What do the screens show for `CN(C)S(=O)(=O)c1cc(C(=O)NCCCn2ccc3ccccc32)ccc1Cl`?
H5N1 antiviral: inactive

What do the screens show for `CCCCNC(=O)CC1SC(=NCC)N(CC)C1=O` (stereo unspecified)?
H5N1 antiviral: 0.5

What do the screens show for `CCC(C)n1[nH]c(=O)cc1N` (stereo unspecified)?
H5N1 antiviral: inactive

How did Cc1cnc(NC(=O)CSc2ccccc2)s1 do in these assays?
H5N1 antiviral: 7.7

How did COC(=O)C(CC(=O)c1ccc(Cl)cc1)c1ccc(C(C)C)cc1 (stereo unspecified) do in these assays?
H5N1 antiviral: 0.1

Results for CCNC(=O)COC(=O)c1cc(-c2ccc(OC)cc2)nc2ccccc12 ?
H5N1 antiviral: 0.4

Results for CCOC(=O)C1=C(C)NC2=C(C(=O)CCC2)C1c1cc(OC)ccc1OC (stereo unspecified) ?
H5N1 antiviral: 0.4

What do the screens show for `CCNC(=O)CN(c1ccc(CC)cc1)S(C)(=O)=O`?
H5N1 antiviral: 0.6

How did CCCc1nnc(NC(=O)CCC(=O)N2CCN(c3ccccn3)CC2)s1 do in these assays?
H5N1 antiviral: inactive

How did Cc1nc(NC(=O)c2ccco2)sc1C(=O)Nc1ccc(Br)cc1 do in these assays?
H5N1 antiviral: inactive

What do the screens show for `O=[N+]([O-])c1cccc(Cl)c1NCCNS(=O)(=O)c1ccccc1`?
H5N1 antiviral: inactive

How did COc1ccccc1C(=O)N/C(=C\c1ccc(Br)cc1)C(=O)NCCO do in these assays?
H5N1 antiviral: 0.9

What do the screens show for `CCN(CC)c1ccc(NC(=O)c2cnn(CC)c2)cc1`?
H5N1 antiviral: 0.5

How did O=S(=O)(NCCNS(=O)(=O)c1ccccc1)c1ccccc1 do in these assays?
H5N1 antiviral: 1.0

What do the screens show for `Cc1ccc(NC(=O)N2CCC(C(=O)NCC(C)C)CC2)cc1`?
H5N1 antiviral: 0.2

Results for CCOC(=O)c1c(C)c(C(=O)NCCc2ccc(S(N)(=O)=O)cc2)c(C)n1CC ?
H5N1 antiviral: inactive

How did CCN(CC)CCNC(=O)CCCCn1c(=S)[nH]c2c([nH]c3ccc(OC)cc32)c1=O do in these assays?
H5N1 antiviral: inactive

What do the screens show for `CCS(=O)(=O)N1CCC(C(=O)NCc2cccs2)CC1`?
H5N1 antiviral: inactive

How did Cc1c(NS(=O)(=O)N2CCCC2)c(=O)n(-c2ccccc2)n1C do in these assays?
H5N1 antiviral: inactive

How did N#C/C(=C/c1ccc(Sc2nc3ccccc3[nH]2)o1)c1cccc(Br)c1 do in these assays?
H5N1 antiviral: inactive

What do the screens show for `Cc1ccc(Cn2ccc(NC(=O)c3cc(-c4ccc5c(c4)OCO5)on3)n2)cc1`?
H5N1 antiviral: 0.4

How did COc1ccc(/C=N/n2cnnc2SCc2ccccc2)cc1 do in these assays?
H5N1 antiviral: 1.6

Results for CC1=C(C(=O)OCC(C)C)C(c2ccc(F)cc2)NC(=O)N1 (stereo unspecified) ?
H5N1 antiviral: 0.3

What do the screens show for `Cc1cc(C)nc(Sc2ncnc3c2oc2ccccc23)n1`?
H5N1 antiviral: 2.3

How did C=C(C)CSc1nnc(-c2ccc(OC)cc2)n1N do in these assays?
H5N1 antiviral: inactive

How did CC(C)c1nnc(-c2ccc(Cl)cc2)c(N(C)C)n1 do in these assays?
H5N1 antiviral: 0.7

What do the screens show for `Cc1cc(OCC(=O)N2CCOCC2)cc2oc(=O)c3ccccc3c12`?
H5N1 antiviral: inactive

Results for O=C(O)CCS(=O)(=O)Cc1ccccc1Cl ?
H5N1 antiviral: 0.8

How did CCOC(=O)C(C)Sc1nc(-c2ccccc2)nc2ccc(F)cc12 (stereo unspecified) do in these assays?
H5N1 antiviral: inactive

In the list so far, these have fluorine:
Results for Cc1cccc(NC(=O)c2cc3n(n2)C(C(F)(F)F)CC(C2CC2)N3)c1C (stereo unspecified) ?
H5N1 antiviral: 1.2

What do the screens show for `Cc1nnc(SCC(=O)Nc2cccc(C(F)(F)F)c2)n1Cc1ccco1`?
H5N1 antiviral: inactive

What do the screens show for `Cc1cccnc1NC(=O)Nc1cccc(C(F)(F)F)c1`?
H5N1 antiviral: 0.6

How did COc1ccc(N2C(=O)C3CCCN3C2c2ccccc2F)cc1 (stereo unspecified) do in these assays?
H5N1 antiviral: inactive

Results for Cc1nc2c(-c3ccc(F)cc3)c(C)nn2c(N2CCOCC2)c1C ?
H5N1 antiviral: 1.0

How did O=C(C1CSC2(c3ccc(F)cc3)CCC(=O)N12)N1CCCCCC1 (stereo unspecified) do in these assays?
H5N1 antiviral: 1.1

Results for O=C(Cc1ccc(F)cc1)N(c1ccc(F)cc1)C1C=CS(=O)(=O)C1 (stereo unspecified) ?
H5N1 antiviral: 0.2

Results for Cc1ccc2oc3c(c(=O)c2c1)C(c1ccc(F)cc1)N(CCCN1CCOCC1)C3=O (stereo unspecified) ?
H5N1 antiviral: inactive

Results for O=C(O)c1cccc(NC(=O)C2C3C=CC(C3)C2C(=O)OCC(F)(F)C(F)F)c1 (stereo unspecified) ?
H5N1 antiviral: 0.8

How did O=C(c1ccco1)N1CCN(S(=O)(=O)c2cccc(C(F)(F)F)c2)CC1 do in these assays?
H5N1 antiviral: inactive

Results for CC1=C(C(=O)OCC(C)C)C(c2ccc(F)cc2)NC(=O)N1 (stereo unspecified) ?
H5N1 antiviral: 0.3

How did CCOC(=O)C(C)Sc1nc(-c2ccccc2)nc2ccc(F)cc12 (stereo unspecified) do in these assays?
H5N1 antiviral: inactive
